Compound activity from PubChem.
RanGTP-Imp inh – disruptors of Ran-importin-beta complex formation – biochemical, FRET, CFP-Ran, YFP-importin-beta, homogeneous, primary screen; AID 2216; 300,000 compounds, 1.1% hits; inhibition, % (no concentration beside the values); cell-free CFP-Ran/YFP-importin-beta FRET ratio;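 active means most replicates above 15%; inconclusive means exactly half above 15%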;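 further: 0% = DMSO wells and 100% = Ran loaded with GDP instead of GTP; wells of about 40 µL received 100 nL stock; the first replicate is given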
UCH37 DUB inh – human UCH37 deubiquitinating enzyme inhibition; Q9Y5K5; 330,000 compounds, 0.33% hits; purified proteasome/UCH37, Ub-AMC cleavage fluorescence; inhibition, % (test concentration not listed); AID 588478;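 active means mean of two replicates above 20%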;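 further: 0% = compound-free wells with enzyme and 100% = wells lacking proteasome; stock transfer was 100 nL into about 20 µL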
Target sequence (Q9Y5K5 whole entry, looked up): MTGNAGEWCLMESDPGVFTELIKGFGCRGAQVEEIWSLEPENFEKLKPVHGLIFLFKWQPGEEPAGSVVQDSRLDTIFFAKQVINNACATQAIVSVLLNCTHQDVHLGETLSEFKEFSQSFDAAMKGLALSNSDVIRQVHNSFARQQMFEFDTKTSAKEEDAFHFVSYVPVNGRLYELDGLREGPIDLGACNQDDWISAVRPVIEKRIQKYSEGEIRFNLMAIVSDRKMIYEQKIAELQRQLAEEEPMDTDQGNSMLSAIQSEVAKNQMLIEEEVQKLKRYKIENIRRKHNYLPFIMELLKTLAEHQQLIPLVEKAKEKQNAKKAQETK
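Material: human UCH37 enzyme supplied as purified proteasome complex / Amount: 0.15 nM proteasome as dispensed / Buffer or medium: pH 7.4 Tris-HCl (50 mM) with ovalbumin, ATP-MgCl2, DTT / Times: preincubation 30 min, reaction 25 min, room temperature / Technique: AMC fluorescence from Ub-AMC cleavage, excitation 355 nm, emission 460 nm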
HNF4A DNA FP – change in binding of human HNF4 alpha to DNA; activity change, % at 10 µM; HNF4a-FITC DNA binding, fluorescence polarization, 1 h; P41235; AID 1224865; 360,000 compounds, 0.3% hits; in the data active means activity change above about 30%, passing the limit was not always enough;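 further: controls were the assay level and a saturating level of protein; the project sought stronger binding though the title names inhibitors; some compounds called inactive have numbers as strong as hits; positive values seem to mean higher polarization but the record does not say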
AF4-AF9 inh – MLL-AF4/AF9 protein interaction inhibition. P42568. AlphaScreen, biotin-AF4 peptide binding to FLAG-AF9. inhibition, % at 10 µM. 350,000 compounds, 0.47% hits;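 active means every replicate reaching a set inhibition limit, whatever the replicate mean, cut at about 25% in these data; inconclusive means mean inhibition reaches that limit but some replicates miss it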;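 further: 0% = plate neutral control median and 100% = total signal loss; the record names both 10 and 1 µM as test concentration; the first replicate is given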
Target sequence (P42568 whole entry, looked up): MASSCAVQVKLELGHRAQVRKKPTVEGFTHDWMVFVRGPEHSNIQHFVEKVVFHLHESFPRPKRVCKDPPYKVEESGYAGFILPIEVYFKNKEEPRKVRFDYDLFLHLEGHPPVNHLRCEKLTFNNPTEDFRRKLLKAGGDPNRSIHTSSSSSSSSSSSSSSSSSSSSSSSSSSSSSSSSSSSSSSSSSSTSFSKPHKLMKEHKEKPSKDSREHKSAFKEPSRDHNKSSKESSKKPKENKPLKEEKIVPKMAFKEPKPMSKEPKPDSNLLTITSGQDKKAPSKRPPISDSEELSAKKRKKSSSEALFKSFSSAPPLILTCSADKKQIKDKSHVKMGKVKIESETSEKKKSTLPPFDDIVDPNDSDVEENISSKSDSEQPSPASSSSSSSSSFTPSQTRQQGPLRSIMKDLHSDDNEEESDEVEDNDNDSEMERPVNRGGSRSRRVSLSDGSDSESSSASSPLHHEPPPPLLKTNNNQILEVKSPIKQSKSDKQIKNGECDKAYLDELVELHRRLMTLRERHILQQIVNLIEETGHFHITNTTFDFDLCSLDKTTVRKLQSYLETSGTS
Vif A3G – HIV-1 Vif–A3G interaction blockers – biochemical, TR-FRET, GST-Vif 1-94, biotin-A3G peptide, dose response retest, primary screen (AID 1117319). inhibition, %; hits with a dose series show IC50 in µM. 260,000 compounds, 0.57% hits. TR-FRET GST-Vif / biotin-A3G peptide binding; higher % means a stronger effect; test concentration not given here; strong numbers were not always called active;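 active means above the screen mean plus three standard deviations and confirmed in dose response; inconclusive means results disagree or hit not tested in dose response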;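 further: Vif residues 1-94 fused to GST binding biotinylated APOBEC3G peptide 110-148; 0% = full assay without inhibitor and 100% = GST in place of GST-Vif; retest series ran down from 100 µM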
Ecoli growth – blocks Escherichia coli growth; 330,000 compounds, 0.21% hits; OD600 absorbance (no concentration beside the values); OD600, 23 h; hits give low values;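 active means OD600 absorbance below the run mean of sample wells minus 3.6 SD, in any replicate, cut at about 0.56 in these data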;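 further: stock transfer was 300 nL into about 60 µL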
FGF22 binding – FGF22 (human) thermal shift binding | Q9HCT0 | recombinant FGF22 thermal shift, SYPRO orange fluorescence; percent of sucrose octasulfate shift, DMSO zero | calls only at 9.99 µM | 340,000 compounds, 1.5% hits | AID 651658;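 active means melting point raised past a set limit in the mean and every replicate; inconclusive means no clear call; three in four hits are not shown here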
Target sequence (Q9HCT0 whole entry, looked up): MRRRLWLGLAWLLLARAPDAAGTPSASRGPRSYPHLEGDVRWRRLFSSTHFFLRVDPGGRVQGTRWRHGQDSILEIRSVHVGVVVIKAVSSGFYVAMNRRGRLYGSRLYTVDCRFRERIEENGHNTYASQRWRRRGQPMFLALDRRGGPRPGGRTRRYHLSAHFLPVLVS
Active calls of the source: *; i = inactive; ? = inconclusive; nt = not tested or not shown; & = joins results of further samples.

SMILES	RanGTP-Imp inh	UCH37 DUB inh	HNF4A DNA FP	AF4-AF9 inh	Vif A3G	Ecoli growth	FGF22 binding
COc1cccc(CN(C)C(=O)c2cc(S(=O)(=O)N3CCCCCC3)ccc2OC)c1	nt	0.5	-0.9	5.1	21%	0.63	i
COc1ccccc1N1CCN(/N=C\C(Br)=C\c2ccccc2)CC1	-2.4	nt	3.5	16	8%	nt	nt
C/C(=N/NC(=O)c1ccc(Br)o1)C(C)C	-1.4	nt	-2.0	-0.2	33%	nt	i
COc1cccc(OCc2nnc(SC)n2C)c1	1.1	3.0	0.8	nt	27%	0.71	nt
COc1ccc(CCN2C(=O)CC(NNC(=O)c3ccc(F)cc3)C2=O)cc1OC (stereo not drawn)	-4.6	2.1	-0.5	nt	nt	0.7	nt
COc1cc(CN2CCC(C(=O)NC(C)(C)C)CC2)ccc1OCc1ccccc1	nt	nt	-1.3	0.3	0%	nt	i
CCOc1ccccc1NC(=O)CSC1=C(C#N)C(c2ccco2)C(C(=O)Nc2nc3ccccc3s2)=C(C)N1 (stereo not drawn)	1.1	-361	11	nt	-1%	0.73	nt
CC(C)NC(=O)/C(=C/c1ccco1)c1ccccc1	2.4	5.3	-1.2	nt	6%	0.77	nt
O=C(COc1ccc(Cl)cc1Cl)Nc1ccc(Cl)cn1	-0.4	3.6	-2.5	-0.7	2%	0.69	i
C[C@H]1CCCCO[C@H](CN(C)Cc2ccncc2)[C@@H](C)CN([C@@H](C)CO)C(=O)c2cc(NS(=O)(=O)c3ccccc3)ccc2O1	nt	nt	-1.2	-0.2&-0.7	-2%	nt	i
Oc1c(Br)cccc1/C=N/Nc1c(F)c(F)c(F)c(F)c1F	4.3	nt	-2.8	nt	22%	nt	nt
C=CCn1c(SCC(=O)N(CC)C2CCS(=O)(=O)C2)nc2scc(-c3ccccc3)c2c1=O (stereo not drawn)	nt	4.2	-0.4	2.2	nt	0.65	i
Clc1ccc(OCc2nc(-c3ccccn3)n[nH]2)cc1	0.4	3.3	17	nt	0%	0.67	nt
CCc1nc2c(OCc3ccccc3)cccn2c1N(C)C(C)=O	nt	nt	1.4	0.3	nt	nt	i
Cc1ccc(S(=O)(=O)NC(=O)Nc2cc(C)no2)cc1	-1.0	2.3	-0.9	-0.1	-6%	0.64	i
CC(=O)c1cccc(NC(=S)Nc2ccn(Cc3cccc4ccccc34)n2)c1	-1.4	5.9	-1.5	-1.3	-9%	0.7	i
O=C(NCc1ccncc1)c1ccc(-c2ccc(F)c(F)c2)c2ccoc12	nt	nt	0.2	-2.9	nt	nt	i
Cc1cccc(NC(=S)N/N=C/c2ccc([N+](=O)[O-])s2)c1	1.5	nt	10	nt	13%	nt	nt
CCN(CC(=O)Nc1ccc(OC)cc1)C(=O)CN1C(=O)NC(C)(c2ccc3ccccc3c2)C1=O (stereo not drawn)	0.1	4.3	7.8	-0.3	nt	0.74	i
CCCCC/C=N/NC(=O)c1[nH]c2ccc([N+](=O)[O-])cc2c1C	4.0	nt	1.7	1.1	5%	nt	i

Some of the entries so far, with two lines to a compound.
Fields – RanGTP-Imp inh, UCH37 DUB inh, HNF4A DNA FP, AF4-AF9 inh, Vif A3G, Ecoli growth, FGF22 binding
Cc1cccc(NC(=S)N/N=C/c2ccc([N+](=O)[O-])s2)c1
 : 1.5, nt, 10, nt, 13%, nt, nt
CCN(CC(=O)Nc1ccc(OC)cc1)C(=O)CN1C(=O)NC(C)(c2ccc3ccccc3c2)C1=O (stereo not drawn)
 : 0.1, 4.3, 7.8, -0.3, nt, 0.74, i
CCCCC/C=N/NC(=O)c1[nH]c2ccc([N+](=O)[O-])cc2c1C
 : 4.0, nt, 1.7, 1.1, 5%, nt, i

(cont.)
SMILES	RanGTP-Imp inh	UCH37 DUB inh	HNF4A DNA FP	AF4-AF9 inh	Vif A3G	Ecoli growth	FGF22 binding
Cc1ccc(CCN2C(=O)c3ccccc3C2C(=O)NCc2cccnc2)cc1 (stereo not drawn)	0.5	-1.3	0.6	0.7	nt	0.7	nt
NC(=O)COc1ccc(C23CC4CC(CC(C4)C2)C3)cc1	-4.2	4.5	0.7	-1.6	-11%	0.69	i
COc1ccc(-c2noc(CCC(=O)N3CCN(c4cccc(F)c4)CC3)n2)cc1	nt	-0.5	-2.5	-1.5	nt	0.66	i
COC(=O)c1cccnc1N1CCN(c2ccccc2F)CC1	4.6	0.8	2.8	nt	-2%	0.65	nt
COc1ccc(-c2cc3ccccc3n2CC(O)Cn2nc(C)cc2C)cc1 (stereo not drawn)	-3.4	3.7	-5.8	nt	-13%	0.69	nt
CC1(C(=O)NS(=O)(=O)c2ccc(Cl)s2)CCN1C(=O)c1ccc(C2CCCCC2)cc1 (stereo not drawn)	nt	nt	-6.7	-2.7	nt	nt	i
FC(F)(F)c1ccccc1NC(=S)Nc1cccc(Cl)c1	3.3	5.0	-1.8	-0.4	-1%	0.57	i
COC(=O)c1cc(OC)c(OC)cc1NC(=S)N1CCOCC1	-0.5	1.6	1.1	-2.1	-8%	0.71	i
O=C(Nc1ccncc1)c1cc(-c2cccc(Br)c2)nc2ccccc12	1.5	1.8	0.3	-0.5	-14%	0.64	nt
O=C(N=C1SC2CS(=O)(=O)CC2N1c1ccccc1F)C1CCCCC1 (stereo not drawn)	-0.9	-0.2	0.5	-1.9	4%	0.68	i
CCOc1ccc(NC(=O)c2ccc3c(c2)C(=O)N(Cc2ccncc2)C3=O)cc1	nt	0.9	4.3	-0.5	8%	0.7	i
Cc1ccccc1N=C(N)Nc1ccccc1C	nt	2.0	-25	-0.8	-5%	0.67	i
COC(=O)[C@@H]1C[C@H]2CC[C@H](O)C[C@H]2N1Cc1ccc(Cl)cc1	3.9	1.4	1.5	-1.4	nt	nt	i
COc1ccc(C(=O)Nc2nnc(SCC(=O)NCc3ccco3)s2)c(OC)c1	2.6	-5.6	-0.4	0.0	-14%	0.69	i
CCCn1c(C)c(C(=O)OCC)c(O)c(-c2ccccc2)c1=O	-0.4	4.7	-0.8	-1.6	nt	0.66	i
CCN1CCN(S(=O)(=O)c2ccc(Cl)c(C(=O)N(C)Cc3cccs3)c2)CC1	nt	0.9	2.2	6.2	-4%	0.68	i
O=C(NCc1ccccn1)c1cccc(NS(=O)(=O)c2ccccc2F)c1	-0.2	2.3	-1.6	nt	nt	0.63	nt
CC(=O)Nc1ccc(C(=O)OCCCOC(=O)c2ccc(NC(C)=O)cc2)cc1	-0.6	0.9	4.9	-1.2	nt	0.66	i
O=c1cc2c(n[nH]1)-c1ccccc1CC2	?	-0.7	3.5	-1.0	24%	0.66	i
CCOC(=O)c1cc2cc(CC(=O)c3ccc(OCC)cc3O)ccc2o1	4.8	1.0	-2.7	nt	1%	0.78	nt
O=C(COC(=O)c1ccc(S(=O)(=O)Nc2ccccc2)cc1)NCC1CCCO1 (stereo not drawn)	6.7	2.8	5.7	2.1	nt	0.69	i
Cc1cc(C)n2nc(SCc3nnc(SCc4ccccc4)s3)nc2n1	5.8	0.7	5.2	nt	15%	0.7	nt
Cc1ccc(NC(=O)C(=O)NCCN2CCN(C(=O)C(c3ccccc3)c3ccccc3)CC2)cc1	2.6	1.7	-1.1	nt	-2%	0.76	nt
Cc1nn(Cc2ccccc2Cl)c(C)c1C(=O)NC1=NCCS1	-3.2	2.1	-1.1	nt	-1%	0.74	nt
CCOc1cc(/C=C2/NC(=O)N(CC(=O)Nc3cccc(C)c3)C2=O)ccc1OC	4.5	-6.5	3.1	nt	5%	0.71	nt
O=C(N/N=C/c1c[nH]c2ccccc12)c1[nH]c2ccc(Br)cc2c1-c1ccccc1	1.0	nt	0.8	4.8	25%	nt	i
C=CCn1cccc(C(=O)Nc2ccc(C)c(Cl)c2)c1=O	-1.9	0.8	1.4	0.1	-8%	0.7	i
CCCCN(CC)C(=O)CSc1cc(=O)n(C)c2ccccc12	-1.1	1.8	2.6	nt	-2%	0.69	nt
N#Cc1nc(-c2ccc(Cl)cc2)oc1NCC1CCCO1 (stereo not drawn)	-0.2	-324	-3.0	-1.1	4%	0.72	i
Cc1ccc2nc(NC(=O)C3CCN(S(=O)(=O)c4cccc5nsnc45)CC3)sc2c1	2.3	6.4	-0.7	nt	nt	0.67	nt
CCC(=O)N1CCN(c2cc3c(cc2F)c(=O)c(C(=O)O)cn3CC)CC1	0.2	-99	-1.4	-5.9	nt	0.069*	i
N/C(=N\OC(=O)c1ccc([N+](=O)[O-])cc1Cl)c1ccccn1	-3.9	nt	-3.5	1.8	nt	nt	i
O=C(c1cc(COc2c(F)cccc2F)on1)N1CC[C@@H]2CCCC[C@H]2C1	nt	nt	2.6	-14	3%	nt	i
COc1ccc(Cc2nnc(SCC(=O)Nc3ccccc3)[nH]c2=O)cc1	3.1	2.5	4.2	-6.2	-2%	0.6	i
O=C(Nc1ncc(S(=O)(=O)c2ccc([N+](=O)[O-])cc2)s1)c1cccc2ccccc12	-1.5	nt	2.1	-3.7	6%	nt	i
O=C(NCC(F)(F)F)Nc1ccccn1	2.0	-2.9	2.6	nt	-3%	0.68	nt
Cc1ccc(-c2noc(CCC(=O)Nc3cc(C)ccn3)n2)cc1	-2.2	5.7	-3.4	nt	17%	0.74	nt
O=c1cc(Nc2ccc3c(c2)OCCO3)[nH]c(=O)n1-c1ccc(Cl)cc1	-2.8	2.7	-0.9	-5.4	1%	0.78	i
CCn1cc(CN2CCC(C(=O)Nc3ccc(Oc4cccnc4)cc3)CC2)cn1	-2.1	-1.7	3.1	2.2	5%	0.67	i
Cc1cc(=O)[nH]c(SCC(=O)Nc2c(C)n(C)n(-c3ccccc3)c2=O)c1C#N	nt	-1.5	5.2	-1.9	8%	0.68	i
Cn1nc(C(=O)NNC(=O)c2ccccc2F)c2ccccc2c1=O	nt	5.7	0.9	-1.3	nt	0.71	i
CN1C(=O)NC(c2ccccc2)C2=C1CN(c1ccc3ccccc3c1)C2=O (stereo not drawn)	-4.8	-43	-10	nt	22%	0.76	nt
Cc1[nH]c2ccccc2c1/C=N/n1cnnc1	4.9	nt	1.5	nt	0%	nt	nt
O=C(CCNS(=O)(=O)c1ccc(F)cc1)N1CCN(c2ncccn2)CC1	nt	nt	1.6	2.7	-6%	nt	i
Cc1cccc(NC(=O)c2ccc(S(=O)(=O)N3CCCCC3C)cc2)n1 (stereo not drawn)	-0.2	3.8	-1.5	-14	-15%	0.67	i
Clc1ccc(CNCC2CCCO2)c(Cl)c1 (stereo not drawn)	-3.0	-1.0	0.4	2.0	nt	0.63	i
CSc1ncc(C(=O)O)n1-c1ccc(F)cc1	0.8	1.4	10	nt	-5%	0.72	nt
CCCSc1nc(N)c2c3c(sc2n1)CN(C)CC3	8.9	-9.4	11	nt	2%	0.68	nt
CCC(C)(C)C(=O)Nc1ccc(C(N)=O)cc1	4.0	-0.3	-1.0	nt	3%	0.69	nt
CCC(/C=C1\Sc2ccc(OC)cc2N1CC)=C\c1sc2ccc(OC)cc2[n+]1CCCS(=O)(=O)[O-]	11	9.1	5.7	3.5	10%	0.83	i
COc1ccc(N=C2NN=C(c3ccc4c(c3)OCCO4)CS2)cc1	-3.2	-3.5	-1.6	nt	18%	0.75	nt
Cc1cc(Br)c(NC(=O)CCl)c(Br)c1	1.5	4.4	5.3	0.6	8%	0.68	i
C(#CC1CCCC1)c1ccc2c(c1)COc1c3ccccc3nn1-2	3.6	2.3	2.2	nt	-1%	0.67	i
Oc1c(C=Nc2ccccc2Cl)[nH]c2ccccc12	2.8	0.2	-16	-7.3	2%	0.69	nt
O=C(CCN1CCN2CCCC2C1)N1c2ccccc2Sc2ccc(Cl)cc21 (stereo not drawn)	2.5	4.3	1.7	-11	3%	0.68	i
Cc1cccc(Oc2ncnc(N)c2[N+](=O)[O-])c1	?	5.1	2.3	nt	nt	0.7	nt

A portion of the library, so the mix of outcomes need not match the whole.
